# Compound activity (PubChem)
# YopH PTP inh – YopH tyrosine phosphatase inhibitors, primary screen, biochemical, fluorescence Ex485/Em525; AID 898, 2007; inhibition, %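 (about 10 µM by stock and volumes)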; 140,000 tested, 0.16% active;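 active means inhibition of 50% or more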;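 further: controls were vehicle for no effect and minimum signal wells for full effect; inactives centre near -20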
# Arbovirus inh – antivirals against arbovirus infection, primary screen, cell-based, full library, 10K replicate subset | 200,000 tested, 0.37% active | arbovirus infection cell-based antiviral screen | inhibition, % at 10 µM | AID 1251, 2008;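 active means inhibition from about 30%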;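 further: bluetongue infection of BSR cells; cell survival read as ATP light after 72 h; 0% = infected wells without compound and 100% = uninfected wells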
# Mtb bLac sens – beta-lactam sensitization of Mtb H37Rv, H37Rv; M. tuberculosis H37Rv growth with meropenem, percent inhibition; hits of this screen are not shown here; inhibition, % at 25 µM; 330,000 tested, 0.27% active; AID 434955, 2010;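 active means about 74% or more and at least 40 points above the plate without the antibiotic, then above 30% in a dose series; inconclusive means first-round hits that could not be retested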;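 further: growth measured after seven days incubation then overnight dye step; 0% = bacteria only wells and 100% = bacteria with antibiotic; twin plates without the antibiotic show which effects depend on it; some results filed as inactive read as strong as hits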
# RecA splice inh – Mtb RecA intein splicing inhibitors, primary screen, biochemical, fluorescence, HTS. cell-free RecA intein splicing. inhibition, %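 (about 9 µM by stock and volumes)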. Protein RecA (Mycobacterium tuberculosis (strain ATCC 25618 / H37Rv)), P9WHJ3. 290,000 tested, 0.75% active; in the data active means inhibition above about 30%; inconclusive means no clear call, values can overlap the other calls;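 further: 0% = vehicle wells and 100% = reference inhibitor control wells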
# Target sequence (P9WHJ3 whole entry, looked up, canonical isoform): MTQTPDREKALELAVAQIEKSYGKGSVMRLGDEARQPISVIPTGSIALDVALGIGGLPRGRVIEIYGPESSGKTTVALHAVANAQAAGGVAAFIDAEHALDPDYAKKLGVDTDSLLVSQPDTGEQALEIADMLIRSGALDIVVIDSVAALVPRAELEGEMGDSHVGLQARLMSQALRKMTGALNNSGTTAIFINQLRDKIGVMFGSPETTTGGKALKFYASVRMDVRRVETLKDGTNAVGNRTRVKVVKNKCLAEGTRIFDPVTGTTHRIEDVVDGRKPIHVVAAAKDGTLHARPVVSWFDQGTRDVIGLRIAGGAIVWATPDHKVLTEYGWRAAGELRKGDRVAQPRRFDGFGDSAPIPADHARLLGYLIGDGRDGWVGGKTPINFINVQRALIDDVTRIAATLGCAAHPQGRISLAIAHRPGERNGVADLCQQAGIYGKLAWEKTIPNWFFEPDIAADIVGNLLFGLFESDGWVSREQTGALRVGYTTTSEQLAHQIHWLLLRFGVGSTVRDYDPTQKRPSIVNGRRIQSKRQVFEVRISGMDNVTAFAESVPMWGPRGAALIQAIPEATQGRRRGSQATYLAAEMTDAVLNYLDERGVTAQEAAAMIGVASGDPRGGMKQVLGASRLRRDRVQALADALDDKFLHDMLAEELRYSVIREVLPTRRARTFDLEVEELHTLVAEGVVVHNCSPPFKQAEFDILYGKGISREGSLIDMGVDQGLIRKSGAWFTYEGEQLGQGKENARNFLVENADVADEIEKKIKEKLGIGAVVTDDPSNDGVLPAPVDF
# Mtb growth – M. tuberculosis H37Rv growth inhibitors, H37Rv strain (AID 1626) | M. tuberculosis H37Rv growth inhibition; higher % means a stronger effect | inhibition, % at 10 µM; hits with a dose series show IC50 in µM | 220,000 tested, 0.95% active;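 active means confirmed in a dose series; inconclusive means inhibition above 80% but not taken into the dose series; inactive means below 80% or under 30% at every dose of the series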;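 further: bacteria incubated seven days before Alamar blue readout; 0% = bacteria only wells and 100% = bacteria with antibiotic wells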
# Arbovirus inh repeat – also measured in Arbovirus inh; calls as there; inhibition, %; measured here: 10K subset replicate screen; many hits read low in the repeat;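 first of two repeat runs on a subset; 0% = infected and 100% = uninfected wells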
# Starred values were filed as active, the others as inactive; ? = inconclusive; . = not tested or not shown. An excerpt (hit frequency here may not be typical).
# The opening 2 records (preview)
SMILES,YopH PTP inh,Arbovirus inh,Mtb bLac sens,RecA splice inh,Mtb growth,others
CCN1CCN(S(=O)(=O)c2ccc(Cl)c(C(=O)N(C)Cc3cccc(OC)c3)c2)CC1,.,.,-17,-6.7,.,
CCc1ccc(NC(=O)CCNS(=O)(=O)c2cccc3nonc23)cc1,-21,3,16,0.0,5%,

# Results (from the top)
SMILES,YopH PTP inh,Arbovirus inh,Mtb bLac sens,RecA splice inh,Mtb growth,others
CCN1CCN(S(=O)(=O)c2ccc(Cl)c(C(=O)N(C)Cc3cccc(OC)c3)c2)CC1,.,.,-17,-6.7,.,
CCc1ccc(NC(=O)CCNS(=O)(=O)c2cccc3nonc23)cc1,-21,3,16,0.0,5%,
CCC(C(=O)OCC(=O)Nc1ccc(OC)cc1OC)c1ccccc1 (stereo unspecified),.,0,12,3.0,4%,
CCOc1ccc(CN2CCN(Cc3c(C)nn(CC)c3C)CC2CCO)cc1 (stereo unspecified),.,.,-3,-2.2,-7%,
C/C(=N\NC(=O)c1ccccc1C)c1cccc([N+](=O)[O-])c1,8,4,-7,-2.0,-1%,
CCOC(=O)C1CCCN(C2CC(=O)N(c3ccc(N4C(=O)CC(N5CCCC(C(=O)OCC)C5)C4=O)cc3)C2=O)C1 (stereo unspecified),.,2,-4,1.5,-1%,
O=C1NC(=O)C2(Cc3ccccc3N3CCCC32)C(=O)N1 (stereo unspecified),-15,-2,-1,-7.4,-7%,
Cc1c(C(C)(C)O)[nH]c2cc(C(F)(F)F)ccc12,.,.,3,-5.0,.,
COc1ccc2nc(C)cc(N/N=C/c3cccc(OC)c3O)c2c1,.,.,100,1.8,.,
O=C(CC1CCOCC1)Nc1ccc(Cl)c(Cl)c1,.,2,2,-0.5,2%,
O=C(CSc1nc2ncccc2[nH]1)c1cccc([N+](=O)[O-])c1,-28,-7,-1,3.2,-3%,
COc1ccc(S(=O)(=O)c2ccc(OCC3CO3)cc2)cc1 (stereo unspecified),.,4,-7,2.1,-1%,
c1ccc(NC2=Nc3ccccc3CS2)cc1,-32,3,-1,3.6,1%,
Cc1c(O)c(=O)c2ccccc2n1C,-5,-9,-12,-9.2,-10%,
O=C(NC(NNc1ccc([N+](=O)[O-])cc1)(C(F)(F)F)C(F)(F)F)c1ccccc1Cl,-25,-4,-3,6.3,-5%,

# A draw from above in order of SMILES length, rising:
SMILES,YopH PTP inh,Arbovirus inh,Mtb bLac sens,RecA splice inh,Mtb growth,others
Cc1c(C(C)(C)O)[nH]c2cc(C(F)(F)F)ccc12,.,.,3,-5.0,.,
O=C(CSc1nc2ncccc2[nH]1)c1cccc([N+](=O)[O-])c1,-28,-7,-1,3.2,-3%,
CCOC(=O)C1CCCN(C2CC(=O)N(c3ccc(N4C(=O)CC(N5CCCC(C(=O)OCC)C5)C4=O)cc3)C2=O)C1 (stereo unspecified),.,2,-4,1.5,-1%,

# By substructure, the compounds so far with fluorine
SMILES,YopH PTP inh,Arbovirus inh,Mtb bLac sens,RecA splice inh,Mtb growth,others
Cc1c(C(C)(C)O)[nH]c2cc(C(F)(F)F)ccc12,.,.,3,-5.0,.,
O=C(NC(NNc1ccc([N+](=O)[O-])cc1)(C(F)(F)F)C(F)(F)F)c1ccccc1Cl,-25,-4,-3,6.3,-5%,

# Remaining list, next part
SMILES,YopH PTP inh,Arbovirus inh,Mtb bLac sens,RecA splice inh,Mtb growth,others
CCCCN(CC)C(=O)c1cccc(Cl)c1,-9,1,-4,-0.3,-3%,
Cc1cc(C)c(NC(=O)C2CCCO2)c(C)c1 (stereo unspecified),.,.,-9,-0.9,.,
O=S(=O)(CCc1nc2ccccc2[nH]1)c1ccc(Br)cc1,-22,14,2,-3.2,3%,
O=C(CSc1nnc(NC(=O)C2CC(=O)N(c3ccccc3)C2)s1)NCC1CCCO1 (stereo unspecified),.,.,-4,-4.7,.,
CCOc1cccc(NC(=O)C2CC(=O)N(c3ccc(F)cc3)C2)c1 (stereo unspecified),.,0,-5,12,0%,
COc1ccc(-c2csc(/C(C#N)=C/Nc3ccc4c(c3)OCCO4)n2)cc1,-24,-21,6,-2.6,6%,
CCOc1ccccc1NC(=O)CN(c1ccc(Cl)cc1)S(C)(=O)=O,.,.,-1,2.1,.,
NC(=O)c1ccsc1NC(=O)COC(=O)c1cc(Cl)ccc1O,.,.,1,0.8,.,
CCOc1ccc(NCc2nnc(SCC(=O)Nc3cc(C)on3)n2-c2ccccc2OC)cc1,11,-6,83,1.7,?,
S=C(Nc1ccccc1)N1CCOCC1,.,-4,5,-5.4,-7%,
Cn1c(NN)nc2ccccc2c1=O,.,0,4,-7.0,-9%,
COc1cccc(C(=O)NC2CCCc3ccccc32)c1 (stereo unspecified),.,.,-2,2.6,.,
CCCn1c(C(C)Nc2nc(-c3ccc(C)cc3)cs2)nc2cc(Cl)c(Cl)cc21 (stereo unspecified),.,.,1,-2.7,.,
Cc1ccc(-c2c(C(=O)N3CCOCC3)oc(=O)c3ccccc23)cc1,4,3,-7,-2.4,5%,Arbovirus inh repeat=4
COCCNS(=O)(=O)c1ccc(SC)cc1,-6,9,5,1.8,1%,
CCOc1ccc(N(CC(=O)NN=C2CCN(C)CC2)S(=O)(=O)c2ccc(Br)cc2)cc1,.,.,-4,0.2,.,
CNC(=S)n1cnc(N)n1,.,.,-2,0.0,-8%,
CC(=O)N(c1ccccc1)c1nc(C)cc(C)c1C#N,-17,-2,-8,0.9,-2%,
COC(=O)c1c(NC(=O)c2ccccc2F)sc(C(=O)N2CCOCC2)c1C,.,.,-1,0.7,.,
CC1(C)Cc2c(sc3[nH]c(=S)n(Cc4ccccc4)c(=O)c23)CO1,-4,-19,12,-2.4,6%,
COc1ccc2c(C)cc(SCC(=O)Nc3cc(C(N)=O)cc(C(N)=O)c3)nc2c1,.,.,2,-0.9,0%,
Cc1cc(CNC(=O)c2cccnc2Cl)c2ccccc2n1,.,1,5,-1.8,-8%,
CCn1c(/C=C/c2ccccc2)nc2ccccc2c1=O,.,4,1,2.5,0%,
CCn1c(NCc2cccs2)nc2ccccc21,-27,-6,-8,9.4,8%,
CCOCCCN(C)C1CCN(S(=O)(=O)c2csc(C(N)=O)c2)CC1,.,.,-1,-0.7,.,
Cc1ccc(-c2nc(CN3CCN(c4cnccn4)CC3)c(C)o2)o1,.,9,-3,-2.6,-5%,
O=C(NC1CCCC1)C(c1cccnc1)N(C(=O)c1csnn1)c1ccc(F)cc1 (stereo unspecified),.,.,-6,0.8,.,
O=C(NC(=S)NCc1ccc(-c2nc3ccccc3s2)cc1)c1ccco1,0,7,3,-1.7,-2%,
O=C1Nc2ccccc2OC1CC(=O)N1CCOCC1 (stereo unspecified),-42,13,0,.,-6%,
CCN(CC)CCn1c(SCC(=O)NCc2ccccc2)nc2c(sc3ccccc32)c1=O,.,-4,-2,0.5,3%,

# Not a retest: 2 of the compounds above.
SMILES,YopH PTP inh,Arbovirus inh,Mtb bLac sens,RecA splice inh,Mtb growth,others
O=C(CSc1nc2ncccc2[nH]1)c1cccc([N+](=O)[O-])c1,-28,-7,-1,3.2,-3%,
COc1ccc(S(=O)(=O)c2ccc(OCC3CO3)cc2)cc1 (stereo unspecified),.,4,-7,2.1,-1%,

# Other results
SMILES,YopH PTP inh,Arbovirus inh,Mtb bLac sens,RecA splice inh,Mtb growth,others
COc1cc(CC2COC(c3ccc(O)c(OC)c3)C2COC(C)=O)ccc1O (stereo unspecified),.,.,-9,.,4%,
CCOC(=O)c1c(C)n(-c2ccc(C)cc2)c2ccc(O)c(CN(C)C)c12,.,-21,92,5.7,?,
CC(C)n1c(-c2ccncc2)n[nH]c1=S,.,-3,0,3.8,1%,
COC(=O)c1sc(N2C(=O)C(O)=C(C(=O)c3ccc(C)o3)C2c2ccco2)nc1C (stereo unspecified),.,.,2,-2.3,.,
O=C(c1ccc(F)cc1)C1CCN(C(=O)c2ccc(F)cc2)CC1,.,.,-4,1.5,.,
CCOc1cc(C(=O)NCCc2ccc(S(N)(=O)=O)cc2)cc(OCC)c1OCC,.,.,-2,-1.0,5%,
CCOC(=O)C1=C(C)N=C2SCCC(=O)N2C1c1ccc(OC)cc1 (stereo unspecified),.,3,-11,4.1,-9%,
Cc1cc(NC(=O)c2ccc(F)cc2)n(-c2ccccc2)n1,.,.,5,0.7,.,
COC(=O)[C@H](CC(C)C)NC(=O)Nc1ccc(S(N)(=O)=O)cc1,.,.,-3,-0.1,17%,
Cc1nc2ccccc2cc1O,-15,15,15,-54,3%,
CC(=O)OCC(=O)[C@H]1CC[C@H]2[C@@H]3CC=C4C[C@@H](O)CC[C@]4(C)[C@H]3CC[C@]12C,-49,-16,5,-0.4,-2%,
CC1CCN(C(=O)c2ccc(S(=O)(=O)NCc3ccco3)cc2)CC1,.,.,-7,0.4,.,
CCOC(=O)c1ccc(NC(=O)CN2C(=O)CSC2=O)cc1,-3,-3,-4,.,-2%,Arbovirus inh repeat=0
COc1ccc(N2CCN(C(=O)COc3ccc4ccccc4c3)CC2)cc1,9,-2,6,1.6,1%,
COc1cc(/C=C/C(=O)O)ccc1OCc1ccc([N+](=O)[O-])cc1,.,8,-5,-0.9,4%,
COc1ccc(OC)c(-n2c(O)c(C=Nc3c(C)n(C)n(-c4ccccc4)c3=O)c(=O)[nH]c2=O)c1,-23,4,0,-1.4,0%,
Cc1nn(CC(=O)Nc2cccnc2)c(C)c1[N+](=O)[O-],.,-2,-1,-1.4,-6%,
Cc1cc(C(=O)NCCN2C(=O)S/C(=C\c3cccs3)C2=O)ccc1[N+](=O)[O-],-3,-6,10,.,47%,
CCNC(=S)Nc1cccc([N+](=O)[O-])c1,23,-4,12,5.9,-2%,
COc1ccc(Nc2nc(N)nc(CSC(=S)N3CCC(C)CC3)n2)cc1,-33,-8,-4,4.2,5%,
CCN(CC)CCCNc1cc(C)nc2cc(-c3cccs3)nn12,.,-17,1,-2.1,-2%,
Cc1ccc(C(=O)COC(=O)c2cccs2)cc1,-30,-2,96,4.4,8%,
Cc1ccc(C(=O)OCC(=O)N2C(C)CCCC2C)cc1S(=O)(=O)N1CCCCC1 (stereo unspecified),.,.,-13,-3.0,.,
O=C(Nc1cccc(O)c1)c1ccc(C(F)(F)F)cc1,.,-17,-7,2.3,-3%,
Cc1cc(C)n(C(=O)CNC(=O)CCc2ccccc2)n1,-37,-1,-15,-0.9,-1%,
Cc1ccccc1NS(=O)(=O)c1ccc2c(c1)NC(=O)CO2,.,-1,2,5.9,4%,
O=C(COc1ccccc1)N1CCN(CC2CC=CCC2)CC1 (stereo unspecified),.,.,0,0.5,.,
CCc1nnc2n1N=C(c1ccc(Cl)cc1)CS2,.,.,-1,1.4,.,
COc1ccc(CCN2CC(C(=O)NCCc3cccnc3)CCC2=O)cc1 (stereo unspecified),.,.,-5,-1.8,.,
CCSc1nc2c(c(-c3ccc(C)o3)c1C#N)CCCC2,14,1,0,6.3,3%,
CCOc1ccccc1CNC(=O)C1CCCN(c2nc3ccccc3o2)C1 (stereo unspecified),-52,10,.,.,0%,
